# Screens deposited in PubChem by National Center for Advancing Translational Sciences (NCATS).
# 2A StopGo = FMDV 2A StopGo reporter, luciferase signal; human cells with a luciferase reporter of 2A StopGo recoding; control for the full effect not named in the record; Potency, µM (series often up to 57.9 µM), for inactives: at the top dose signal change, negative = less light; 1.2% of 410,000 active; active = well fitted falling curve with a large enough effect; inconclusive = small, poorly fitted or top-dose-only effect; inactive = no such curve, though single readings can be large or run the other way; tested in HEK293T cells; note: % is set by controls: 0 for no effect and ±100 for the full control effect; nearly all actives have a fitted effect of over 45% in size; luciferase light after 4 h
# RE007 growth inh = less growth of the S. pombe RE007 Vpr strain; S. pombe RE007 Vpr strain, BacTiter-Glo ATP luminescence, 24 h; control for the full effect not named in the record; Potency, µM (series often up to 92.2 µM), for the others: top-dose activity change, negative = less growth; 0.21% of 360,000 active; active = well fitted falling curve with a large enough effect; inconclusive = small, poorly fitted or top-dose-only effect; inactive = no such curve, though single readings can be large or run the other way;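 note: % is set by controls: 0 for no effect and ±100 for the full control effect; nearly all actives have a fitted effect of over 50% in size; the assay follows cell death caused by Vpr and the record does not say whether a fall means rescue or toxicity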
#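 Fission yeast strain RE007, carrying one chromosomally integrated HIV-1 vpr copy, was seeded at OD 0.01 in PMG+AL medium with 23 nL pinned compound. After 24 h at 30 °C and 99% humidity, viability was read by BacTiter-Glo luminescence.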
# SARS PLP yeast = SARS-CoV PLP inhibition in yeast; S. cerevisiae expressing SARS-CoV PLpro, growth rescue; control for the full effect not named in the record; Potency, µM (top dose mostly 32.9 µM), inactives show at the top dose activity, positive = growth rescue; 0.19% of 330,000 active; AID 485353; active means well fitted rising curve with a large enough effect; inconclusive means small, poorly fitted or top-dose-only effect; inactive means no such curve, though single readings can be large or run the other way; note: 0% is about no effect; nearly all actives have a fitted effect of over 55% in size; growth read by luminescence after 48 h
# Lassa entry inh = Lassa virus entry inhibition; Lassa virus pseudotype entry inhibition, cell reporter; control for the full effect not named in the record; Potency, µM (titrated, usually from 37.9 µM), inactives show at the highest dose activity change, negative = inhibition, actives largely listed as inhibitors; 1.2% of 300,000 active; active means well fitted inhibition curve with a large enough effect; inconclusive means small, poorly fitted or top-dose-only effect, or effect the other way; inactive means flat fitted curve, though single readings scatter; tested in HEK293 cells; note: % is set by controls: 0 for no effect and ±100 for the full control effect; nearly all actives have a fitted effect of over 50% in size; luciferase read-out
# Cruzain noTriton = inhibitors of Trypanosoma cruzi cruzain without detergent | 2.3% of 200,000 active | AID 1476 | purified cruzain, Z-FR-AMC fluorescence, no detergent | Potency, µM, without a hit: max response, negative = inhibition, usual class: inhibitors | P25779;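 note: plate controls were enzyme without inhibitor for no effect and buffer without enzyme for full effect; nearly all actives have a fitted effect of over 40% in size; top concentration of the series not given in the record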
# Target sequence (P25779 123-467 limits assumed): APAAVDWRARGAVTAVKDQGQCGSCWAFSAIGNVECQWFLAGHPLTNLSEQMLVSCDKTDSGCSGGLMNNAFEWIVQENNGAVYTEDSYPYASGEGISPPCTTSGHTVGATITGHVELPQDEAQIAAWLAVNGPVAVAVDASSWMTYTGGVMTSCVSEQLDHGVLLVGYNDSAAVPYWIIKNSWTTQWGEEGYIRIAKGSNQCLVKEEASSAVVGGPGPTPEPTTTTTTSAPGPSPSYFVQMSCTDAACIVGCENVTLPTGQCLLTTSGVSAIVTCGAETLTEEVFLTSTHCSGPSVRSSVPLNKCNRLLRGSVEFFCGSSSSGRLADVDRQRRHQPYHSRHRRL
#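 Purified cruzain at 1.5 nM, pre-incubated 15 min with compound at room temperature in 100 mM sodium acetate pH 5.5, 5 mM DTT, 0.00005% Triton X-100. Reaction started with 2 uM Z-FR-AMC; AMC fluorescence increase over 60 s gives rate.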
# Cruzain Triton = inhibitors of Trypanosoma cruzi cruzain with detergent; P25779; purified cruzain, Z-FR-AMC fluorescence, 0.01% Triton; Potency, µM, for the others: max response, negative = inhibition, usual class: inhibitors; 0.43% of 200,000 active;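 note: plate controls were neutral wells for no effect and buffer without enzyme for full effect; nearly all actives have a fitted effect of over 40% in size; top concentration of the series not given in the record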
#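 Read-out: AMC fluorescence (360 nm excitation, 450 nm emission), four reads over 2 min, first-to-third difference used. Conditions: cruzain 1.5 nM, Z-FR-AMC 2 uM, pH 5.5 acetate, 5 mM DTT, 0.01% Triton X-100.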
# MARV entry inh = blocks Marburg virus binding to or entry into cells; Potency, µM (highest dose often 37.8 µM), inactives show at the highest dose activity change, negative = inhibition, most hits filed as inhibitors; AID 540276; Marburg virus pseudotyped entry inhibition, cell reporter; control for the full effect not named in the record; about a third of the inactives were read at about 46 µM; 1.8% of 300,000 active; active = well fitted inhibition curve with a large enough effect; inconclusive = small, poorly fitted or top-dose-only effect, or effect the other way; inactive = flat fitted curve, though single readings scatter; tested in HEK293 cells; about a fifth of its hits are not listed in these tables; note: % is set by controls: 0 for no effect and ±100 for the full control effect; luciferase read-out
# NS1 function inh = blocks influenza NS1 protein function. Potency, µM (top dose mostly 46.1 µM), inactives show at the highest dose activity, positive = more growth. 0.4% of 270,000 active. S. cerevisiae slowed by influenza A NS1, growth recovery by OD600; active means well fitted rising curve with a large enough effect; inconclusive means small, poorly fitted or top-dose-only effect; inactive means no such curve, though single readings can be large or run the other way; note: nearly all actives have a fitted effect of over 50% in size
#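 A cell-based growth assay was used: compounds that relieve NS1-induced slow growth of budding yeast raise OD600. Assay medium was yeast nitrogen base with ammonium sulphate and -URA supplement, pH 6.0, with 2% galactose.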
# Numbers without * were called inactive; ? = inconclusive; nt = no result given; [ ] = another dose, or the depositor's remark. Unless noted, calls come from the whole dose curve; as a rule, active = well fitted curve in the direction sought with a large enough effect; inconclusive = small, poorly fitted or top-dose-only effect, or another doubt; inactive = no such curve, though single readings can be large; an effect the other way counts as inactive or inconclusive. Potency is the fitted concentration of half-maximal effect.
SMILES,2A StopGo,RE007 growth inh,SARS PLP yeast,Lassa entry inh,Cruzain noTriton,Cruzain Triton,MARV entry inh,NS1 function inh
Cc1ccccc1P(=O)(CO)c1ccccc1C,-9.5%,10.6%,4.8%,-7.1%,8.1%,12.7%,-3.0%,1.3%
CC(C)Oc1ccc(C(=O)CCN2CCCCC2)cc1,1.8%,39.8µM*,-62.4%,?,-15.3%,-19.8%,?,2.2%
O=C(Nc1cc([N+](=O)[O-])ccc1O)c1ccc2c(c1)C(=O)N(Cc1ccco1)C2=O,14.0%,-8.2%,0.0%,1.5%[46.1 µM],nt,nt,10.1%[46.1 µM],2.6%
Cc1ccc(-c2nn(C)c(=O)c3ccccc23)cc1CNS(C)(=O)=O,-11.9%,-6.7%,-3.1%,-6.5%,-3.5%,6.1%,0.0%,-2.6%
O=C(Nc1ccc(F)cc1)C(Cc1ccccc1)n1cccc1 (stereo not drawn),-13.4%,0.8%,-6.8%,?,nt,nt,?,-10.5%
COc1ccccc1NC=C1C(=O)OC(C)(C)OC1=O,63.4%[activator],-0.6%,-0.2%,-3.0%,0.3%,-0.2%,-11.9%,-7.2%
CCN1C(=O)C(Cc2nc3ccccc3c(=O)n2-c2ccc(OC)cc2)c2cc(C)ccc21 (stereo not drawn),-6.6%,nt,nt,0.0%[46.1 µM],-11.6%,-2.8%,14.1%[46.1 µM],nt
COc1ccc(C2C=C(c3cccc(OC)c3)Nc3c(C(=O)Nc4ccccc4)cnn32)cc1 (stereo not drawn),-9.8%,nt,nt,0.1%[46.1 µM],?,-0.4%,nt,nt
CCOC(=O)c1ccc(NC(=O)c2c(NCc3sccc3C)sc3c2CCCCC3)cc1,28.6%,nt,nt,-18.7%[46.1 µM],-4.8%,-21.4%,nt,nt
COc1ccc(C(=O)NC(=S)NCC2CCCO2)cc1 (stereo not drawn),29.0%,-25.5%,?,3.4%,-7.2%,-2.5%,?,17.1%
COc1ccccc1CNc1ccc(Br)cn1,6.0%,-3.4%,-5.6%,-25.5%[46.1 µM],nt,nt,25.2%[46.1 µM],-4.9%
CSc1ccc(CN2CCC(Oc3ccc(C(=O)N4CCCC4)cc3)CC2)cc1,18.6%,-3.3%,-15.4%,-5.1%[46.1 µM],nt,nt,?,-15.2%
c1ccc(CSc2nc3ccccc3[nH]2)cc1,17.2%,-25.5%,3.1%,?,nt,nt,?,-3.3%
CCOC(=O)C(C)Sc1ncc(OC)c(Sc2ccc(Cl)cc2)n1 (stereo not drawn),?,0.8%,-5.6%,-14.2%,0.3%,-3.4%,10.3%,-10.0%
COc1cccc(Cn2c(=O)n(CC3CCC(C(=O)N4CCCCC4)CC3)c(=O)c3sccc32)c1 (stereo not drawn),?,nt,nt,-17.1%[46.1 µM],28.8%,-6.7%,nt,nt
CN(C)CCN=Cc1c(O)n(CCC2=CCCCC2)c(=O)[nH]c1=O,8.2%,4.9%,7.2%,9.5%,-8.4%,2.7%,-8.2%,-0.5%
O=S(=O)(c1ccc(F)cc1)N1CCC2(CC1)OCCO2,-0.2%,-3.1%,-1.2%,0.8%[46.1 µM],nt,nt,-2.0%[46.1 µM],nt
C/C(=N\NC(=O)c1cccc(C)c1)c1ccc(N2CCOCC2)cc1,14.7%,-23.5%,2.4%,-14.4%,0.6%,0.1%,3.8%,4.0%
CC(C)[C@H](NC(=O)c1ccco1)C(=O)OCC(=O)N(C)c1ccccc1,9.6%,-4.1%,-0.2%,nt,nt,nt,nt,3.7%
COc1ccc(C(=O)N2CCCC(c3nc(-c4cccs4)no3)C2)cc1 (stereo not drawn),4.6%,-0.1%,22.9%,-8.2%,11.8%,-1.6%,-0.9%,-16.7%
O=C(C1=C(O)C(=O)N(CCN2CCOCC2)C1c1ccccn1)c1cccs1 (stereo not drawn),4.0%,-23.9%,-0.5%,15.5%,-19.8%,-4.2%,-15.1%,15.6%
O=C(Nc1nncs1)c1c(F)c(F)c(F)c(F)c1F,-9.0%,1.1%,-5.1%,0.8%,-9.4%,-0.3%,5.4%,-26.6%
CC(C)Oc1ccc(CCc2nnc(SCC(=O)O)n2-c2ccccc2)cc1,3.0%,-2.1%,0.3%,-5.0%[46.1 µM],nt,nt,14.4%[46.1 µM],nt
CCCN(CCC)S(=O)(=O)c1ccc(NS(=O)(=O)c2ccc(F)cc2)cc1,-8.1%,1.7%,-3.6%,-0.4%,3.5%,-7.7%,15.8%,0.9%
CC(=O)c1cccc(Nc2nc(-c3cccc([N+](=O)[O-])c3)cs2)c1,-15.6%,5.4%,-32.5%,?,?,0.9%,?,-19.7%
CC(C)N(CCCNC(=O)c1ccc(CS(=O)(=O)c2c(Cl)cccc2Cl)o1)Cc1ccccc1,-14.0%,-7.4%,1.1%,nt,nt,nt,nt,-3.7%
CC(Oc1ccc(Cl)cc1)C(=O)NNC(=S)NC(=O)c1ccco1 (stereo not drawn),?,-29.7%,-93.8%,?,19.0%,5.2%,-23.4%,-32.1%
CC(C)(C)c1nc(NCC2CCCO2)c2nnn(Cc3ccccc3)c2n1 (stereo not drawn),-17.1%,-5.6%,-11.4%,0.6%,?,-13.2%,?,-6.2%
Cc1cccc(Cc2nnc(CCC(=O)N3CCCC(CN4CCOCC4)C3)o2)c1 (stereo not drawn),15.7%,-3.4%,0.6%,17.6%[46.1 µM],nt,nt,5.6%[46.1 µM],1.3%
Cc1cc(C)n(Cc2ccc(C(=O)Nc3cccc(Br)c3)o2)n1,20.9%,2.4%,-10.0%,-37.1%,-7.6%,-7.4%,?,-14.3%

# Entries of single compounds from above:
# Entry for `COc1ccccc1CNc1ccc(Br)cn1` : 2A StopGo: 6.0%; RE007 growth inh: -3.4%; SARS PLP yeast: -5.6%; Lassa entry inh: -25.5%[46.1 µM]; Cruzain noTriton: nt; Cruzain Triton: nt; MARV entry inh: 25.2%[46.1 µM]; NS1 function inh: -4.9%
# Entry for `COc1ccccc1NC=C1C(=O)OC(C)(C)OC1=O` : 2A StopGo: 63.4%[activator]; RE007 growth inh: -0.6%; SARS PLP yeast: -0.2%; Lassa entry inh: -3.0%; Cruzain noTriton: 0.3%; Cruzain Triton: -0.2%; MARV entry inh: -11.9%; NS1 function inh: -7.2%
# Entry for `CCOC(=O)c1ccc(NC(=O)c2c(NCc3sccc3C)sc3c2CCCCC3)cc1` : 2A StopGo: 28.6%; RE007 growth inh: nt; SARS PLP yeast: nt; Lassa entry inh: -18.7%[46.1 µM]; Cruzain noTriton: -4.8%; Cruzain Triton: -21.4%; MARV entry inh: nt; NS1 function inh: nt

# (cont.)
SMILES,2A StopGo,RE007 growth inh,SARS PLP yeast,Lassa entry inh,Cruzain noTriton,Cruzain Triton,MARV entry inh,NS1 function inh
COC(=O)c1c(NC(=O)c2cccs2)sc2c1CCCC2,3.6%,?,12.4%,5.0%,-9.3%,-5.1%,15.0%,2.24µM*
O=C(Nc1cccc(-c2csc(Nc3cccc(C(F)(F)F)c3)n2)c1)c1ccccc1,?,-2.7%,-9.9%,nt,nt,nt,nt,23.7%
O=C(C1CCN(S(=O)(=O)c2cccs2)CC1)N1CCN(c2ccccc2)CC1,7.2%,10.6%[3.69 µM],5.3%,32.5%,10.9%,2.9%,?,0.8%
O=C(c1ccc(NC(=O)C2(c3ccccc3)CCCC2)cc1)N1CCOCC1,-6.3%,0.7%,0.3%,?,nt,nt,-0.4%[46.1 µM],-4.3%
CC(C)c1nnc(NC(=O)CCC(=O)Nc2ccc(Cl)cc2)s1,-9.3%,8.0%,1.3%,14.4%[46.1 µM],nt,nt,8.6%[46.1 µM],-15.2%
CCCCC(CC)C(=O)Nc1ccccc1C(=O)NC(C)C (stereo not drawn),?,10.9%,-1.4%,1.8%,-7.1%,-0.8%,-30.5%,-33.4%
COC(=O)C1=NN(C(C)(C)CC(C)=O)C2C(=O)N(C3CCCCC3)C(=O)C12 (stereo not drawn),-12.1%,4.9%,0.6%,nt,nt,nt,nt,-1.9%
COc1ccc(NC(=O)CCS(=O)(=O)c2cc3c(cc2Cl)NC(=O)CO3)cc1OC,-18.9%,12.6%,10µM*,nt,nt,nt,nt,7.5%
O=C(NC1CC1)C1=COCCO1,0.0%,20.6%,1.6%,5.3%,4.5%,1.1%,0.9%,2.3%
CCOc1ccc(C2C(C(=O)Nc3ccccc3OC)=C(C)Nc3c(C(=O)Nc4cccc(C)c4)cnn32)cc1 (stereo not drawn),-21.4%,nt,nt,4.4%[46.1 µM],?,-7.7%,nt,nt
C/C(=N\NC(=O)c1ccc(F)cc1)c1ccc(N2CCOCC2)cc1,-8.6%,6.6%,0.5%,4.2%[46.1 µM],nt,nt,?,-5.8%
NNC(=O)c1ccccc1-n1cccc1,46.6%[activator],2.0%,-0.7%,17.8%[46.1 µM],nt,nt,-13.4%[46.1 µM],nt
O=C(O)CCC(=O)Nc1ccc(Oc2ncnc3cc(Cl)ccc23)nc1,20.6%,1.3%,1.5%,-0.5%[46.1 µM],nt,nt,22.1%[46.1 µM],9.5%
Cc1cc(C)nc(-n2ncc(C#N)c2N)n1,-18.1%,0.5%,-1.0%,5.0%[46.1 µM],nt,nt,12.3%[46.1 µM],7.7%
CCOC(=O)C1=C(CCl)NC(=O)NC1c1ccc2c(c1)OCO2 (stereo not drawn),?,-21.8%,24.5%,?,nt,nt,?,5.8%
COc1ccc(CCNC(=O)CS(=O)(=O)Cc2nc(-c3cccc(Cl)c3)oc2C)cc1OC,?,nt,nt,-7.1%[46.1 µM],?,-9.0%,-6.4%[46.1 µM],nt
